From PubChem BioAssay
ClpP mod – qHTS Assay for Activators of ClpP; ATP-dependent Clp protease proteolytic subunit (Bacillus subtilis (strain 168)), P80244; purified B. subtilis ClpP, FRET peptide cleavage, 20 min; Potency, µM (titrated, usually from 57.5 µM), for inactives: at the highest dose activity change, negative = active; 1.9% of 340,000 active; AID 651965, 2013; active = well fitted falling curve with a large enough effect; inconclusive = small, poorly fitted or top-dose-only effect; inactive = no such curve, though single readings can be large or run the other way; note: potency is the fitted concentration of half-maximal effect; the source files actives as falling curves though it sought activators and does not explain the sign; nearly all actives have a fitted effect of over 65% in size; many hits overshoot -100%
Target sequence (P80244 whole entry, looked up): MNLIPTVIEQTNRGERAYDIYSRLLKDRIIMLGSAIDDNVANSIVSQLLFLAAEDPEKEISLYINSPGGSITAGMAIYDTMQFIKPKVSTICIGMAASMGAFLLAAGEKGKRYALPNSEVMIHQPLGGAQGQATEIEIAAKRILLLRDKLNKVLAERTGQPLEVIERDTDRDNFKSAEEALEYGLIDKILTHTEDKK
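Purified B. subtilis ClpP, 10 microg/mL final in Tris/HCl pH8 with KCl, BSA, glycerol and Tween-20, cleaved an Abz/nitrotyrosine-quenched decapeptide. Fluorescence (ex 320, em 430) was read at 0 and 20 min at room temperature. Delta was normalized to 5.8 microM ADEP and DMSO/no-enzyme controls.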
Menin MLL FP FL – inhibitors of human menin-MLL interaction, wild-type MLL peptide | AID 1766 | Fluorescence polarization, fluorescein-MLL peptide displacement from menin | 290,000 tested, under 10 active | FP activity change, % at 61.4 µM; inconclusive = falling polarisation curve, or a change in total fluorescence; inactive = total fluorescence flat and polarisation flat or rising; no compound was filed as active; the % refers to the polarisation; negative = inhibition;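 note: % of control where 0% means no effect; inhibitors lower the polarisation; unlabelled MLL peptide was the positive control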
TRPML1 ag – activates the human TRPML1 channel; TRPML1-expressing cells, Ca2+ dye fluorescence, FDSS; host cell line not named in the record; reference of the full effect not given here; 0.12% of 410,000 active; activation, % (no concentration beside the values); in the data active = activation above about 50%; inconclusive = about 30% to 50%; inactive = below about 30%; note: 0% is about no effect; the text of the record puts the active cut at 80%
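In this qHTS format, compounds were pin-transferred onto Ca8-dye-loaded TRPML1-DL cells induced with Tet overnight, and intracellular Ca2+ fluorescence was recorded kinetically for 110 s after a 10 s baseline. A subsequent 4uM final 54-4 (EC80) addition followed by a second 110 s read served as the antagonist phase.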
TRPML1 inh – inhibitors of human TRPML1 channel; activity change, negative = inhibition, % (test concentration not listed); AID 624415; TRPML1-inducible cells, Ca2+ dye fluorescence, FDSS; hits give low values; inhibition of EC80 agonist-evoked calcium signal; Q9GZU1; 0.02% of 390,000 active; in the data active means activity change below about -50%; inconclusive means about -30% to -50%; inactive means above about -30%;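 note: stimulus is agonist 54-4 at its EC80 concentration; % is set by controls: 0 for no effect and ±100 for the full control effect; compound concentration not given in the record; the text of the record puts the active cut at -80%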
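TRPML1-DL cells, Tet-induced overnight (~16 h, 37 °C) at 1,500 cells/well, were loaded with Ca8 no-wash dye plus quencher for 45-90 min at room temperature. Compounds were pinned during FDSS kinetic reading; agonist 54-4 at EC80 (4 uM final) then added.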
TRPV1 potentiator – human TRPV1 potentiation; TRPV1-expressing cells, Fluo-8 calcium influx, capsaicin EC20 potentiation; host cell line not named in the record; control for the full effect not named in the record; Q8NER1; 0.02% of 320,000 active; potentiation, % at 8.33 µM; AID 540277; active means potentiation above 80%; inconclusive means 30% to 80%; inactive means below 30%; note: 0% is about no effect
Target sequence (Q8NER1 whole entry, looked up): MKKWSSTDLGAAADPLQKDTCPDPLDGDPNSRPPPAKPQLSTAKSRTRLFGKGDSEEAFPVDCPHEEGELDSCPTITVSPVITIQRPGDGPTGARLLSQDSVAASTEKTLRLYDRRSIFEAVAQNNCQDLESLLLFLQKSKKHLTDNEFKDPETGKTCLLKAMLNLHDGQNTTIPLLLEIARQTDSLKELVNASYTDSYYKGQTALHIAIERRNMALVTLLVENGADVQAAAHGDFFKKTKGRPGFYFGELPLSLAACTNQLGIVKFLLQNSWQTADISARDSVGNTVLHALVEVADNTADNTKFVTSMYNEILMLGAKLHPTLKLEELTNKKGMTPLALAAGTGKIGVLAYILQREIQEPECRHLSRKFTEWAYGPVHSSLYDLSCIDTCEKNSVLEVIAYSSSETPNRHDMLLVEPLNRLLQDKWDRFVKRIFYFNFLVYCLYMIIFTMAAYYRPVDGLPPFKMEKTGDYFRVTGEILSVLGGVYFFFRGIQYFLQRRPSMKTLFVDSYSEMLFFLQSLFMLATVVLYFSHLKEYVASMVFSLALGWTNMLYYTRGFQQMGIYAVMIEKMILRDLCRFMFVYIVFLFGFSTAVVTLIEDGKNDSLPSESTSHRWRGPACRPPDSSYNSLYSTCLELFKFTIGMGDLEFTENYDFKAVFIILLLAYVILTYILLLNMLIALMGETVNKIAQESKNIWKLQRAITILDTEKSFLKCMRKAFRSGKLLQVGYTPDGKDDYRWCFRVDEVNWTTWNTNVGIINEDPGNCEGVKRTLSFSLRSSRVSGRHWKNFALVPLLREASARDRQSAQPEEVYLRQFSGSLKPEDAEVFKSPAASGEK
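Cells expressing TRPV1 were dye-loaded with Fluo-8 and read kinetically: 10 s baseline, 3 min after compound (agonist portion), then 2 min after EC20 capsaicin (allosteric enhancer portion). Calcium-bound dye fluorescence at 480/520 nm.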
PINK1 modulator – changes PINK1 expression. 0.2% of 410,000 active. PINK1 immunofluorescence, high-content cytometry, 24 h. Potency, µM (titrated, usually from 76.6 µM), without a hit: at the highest dose activation (PINK1 increase), hits mostly activators; active = well fitted activation curve with a large enough effect; inconclusive = small, poorly fitted or top-dose-only effect; inactive = flat fitted curve, though single readings scatter; cell line not stated here;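 note: potency is the fitted concentration of half-maximal effect; % of control where 0% means no effect; nearly all actives have a fitted effect of over 65% in size; a mitochondrial uncoupler was the plate control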
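Readout is PINK1 immunofluorescence, quantified alongside mitochondrial, cell and nuclear markers by laser-scanning microplate cytometry. Cells from a stable line were exposed to compound titrations (5 concentrations) for 24 hours, with CCCP controls.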
Sfp PPTase inh – Sfp phosphopantetheinyl transferase inhibition. Biochemical Sfp PPTase activity, qHTS. Potency, µM, for the others: max response, negative = inhibition, most hits filed as inhibitors. 3.5% of 310,000 active. AID 1490; active = well fitted inhibition curve with a large enough effect; inconclusive = small, poorly fitted or top-dose-only effect, or another doubt; inactive = no such curve, though single readings can be large or run the other way;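 note: the enzyme is Sfp with the accession as filed and its product quenches rhodamine fluorescence; potency is the fitted concentration of half-maximal effect; 0% = enzyme reaction without inhibitor and -100% = no enzyme wells; top concentration of the series not given in the record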
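After 15 min at room temperature with compound, 15 nM Sfp received 5 uM rhodamine-CoA plus 12.5 uM BHQ-2-ybbR (50 mM Hepes pH 7.6, 10 mM MgCl2). Rate came from the fluorescence difference over 30 min, ex 525/em 598 nm.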
An asterisk follows results filed as active; ? = inconclusive; / = not tested or not shown; & = joins results of further samples; [ ] = dose if it differs, or a comment.

SMILES	ClpP mod	Menin MLL FP FL	TRPML1 ag	TRPML1 inh	TRPV1 potentiator	PINK1 modulator	Sfp PPTase inh
COc1ccc(CNC(=O)COC(=O)c2cc(C)nc3ccccc23)cc1	-8.1%	/	1.2	29	/	-2.6%	/
COc1cc(C(=O)NCCCc2ccccc2)cc(OC)c1OC	/	1.7	0.2	5	27	0.4%	12%
CCCCn1c(N)c(N(CCOC)C(=O)c2ccc(COc3ccccc3)o2)c(=O)[nH]c1=O	-0.6%	/	0.7	-12	8	0.2%	/
CC12CCC(=O)N1C(C(=O)Nc1nc(-c3ccc(F)c(F)c3)cs1)CS2 (centres undefined)	0.7%	/	-0.8	0	-4	8.0%	/
CC(C)CC(=O)Nc1nnc(S(=O)(=O)N2CCCCCC2)s1	-1.9%&0.2%	/	-0.3&0.1	3&8	-5	-0.2%&3.5%	22%
COc1cc(-c2nnc(SCC3(c4ccc(Br)cc4)OCCO3)o2)cc(OC)c1OC	28µM*	-1.2	3.0	35	20	-1.8%	-18%
CCCN1CCN(C2CCCCC2NS(=O)(=O)c2ccccc2)CC1 (centres undefined)	/	-4.9	0.0	-1	18	-1.2%	11%
CC(=O)N/C(=C\c1ccccc1)C(=O)OCc1ccccc1	0.3%	-2.1	1.5	13	-21	-1.1%	-3%
CC(C)(C)OC(=O)CC[C@@H](C(=O)N1CCN(C(=O)OC(C)(C)C)CC1)n1cc(C(CO)NC(=O)OC(C)(C)C)nn1 (some centres undefined)	-1.0%	1.1	0.0	2	5	1.8%	21%
CCNc1ccc(C(=O)OCC(=O)N(Cc2ccccc2)C(C)(C)C)cc1[N+](=O)[O-]	0.8%	2.3	4.4	7	5	-0.1%	2%
Cc1ccc(NC(=O)CN2C(=O)C(c3ccccc3)=NC2(C)C)cc1C	-1.8%	/	1.3	17	/	0.1%	/
O=C(CCS(=O)(=O)c1cc(Br)cc2c1N(C(=O)C1CC1)CC2)Nc1ccc(C(F)(F)F)cc1	-0.2%	/	0.0	61	/	-1.1%	/
C[C@H](NC(=O)c1ccco1)C(=O)Nc1ccc(S(=O)(=O)N2CCCC2)cc1	-4.9%	0.3	1.7	-7	3	0.6%	3%
CN1CCN(S(=O)(=O)c2ccc(NC(=O)C3CCCCC3)cc2)CC1	-13%	-1.8	-0.5	15	-2	0.2%	2%
O=C(Cc1sc(-c2ccccc2Cl)nc1-c1ccccc1)Nc1ccccc1	-16%	-0.6	-0.5	-8	2	9.7%	20%
N#C/C(=C\c1ccc(Sc2ccc(Cl)cc2)o1)c1nc2ccccc2[nH]1	-0.1%	?	5.2	7	14	?	?
Cc1ccc(S(=O)(=O)Cn2nnnc2CN2CCOCC2)cc1	-1.4%	-3.4	0.4	1	13	/	13%
COC(=O)CCC(=O)NC1CC(C)(C)Cc2c1cnn2-c1ccccc1 (centres undefined)	0.2%	0.3	0.6	-16	1	1.9%	15%
O=C(Cc1ccccc1)NN1C(=O)C2C3C=CC(C3)C2C1=O (centres undefined)	-24%	-0.7	-0.3	38	8	-0.2%	13%
O=C(O)c1ccc2c(c1)ncn2C1CCCCC1	0.1%	1.8	0.1	20	2	0.1%[38.3 µM]	4%
Cc1ccc2c(c1)C=CC(C#N)N2C(=O)c1ccccc1 (centres undefined)	/	-1.6	3.5	-12	3	2.8%	19%
O=C(CSc1nnc(NC(=O)c2cccc(Cl)c2)s1)NCC1CCCO1 (centres undefined)	-2.2%	/	-0.4	-8	1	-1.2%	12%
COc1ccc(Nc2nc(Cl)c(C=O)s2)cc1	/	?	/	/	13	/	4%
CCOC(=O)C1CCCN(S(=O)(=O)c2cn(C)c(=O)n(C)c2=O)C1 (centres undefined)	-0.8%	0.6	-0.3	18	23	0.2%	23%
Cc1c(=O)n(OCc2ccccc2F)c2ccccc2[n+]1[O-]	-27%	6.9	1.5	9	?	1.7%	17%
Cc1ccc(OCCNS(=O)(=O)c2ccc(N3CCCC3=O)cc2)cc1C	-1.0%	1.1	1.0	3	4	3.8%[38.3 µM]	-3%
O=S(=O)(c1cccc2nonc12)N1CCN(c2cccc(Cl)c2)CC1	0.9%	1.4	0.6	-16	5	5.2%	14%
CC(C)CN(C(=O)COC(=O)CNC(=O)c1ccccc1F)c1c(N)n(Cc2ccccc2)c(=O)[nH]c1=O	0.6%	/	2.3	-2	/	5.7%	/
Cc1ccc2c(CC(=O)Nc3c(C(=O)c4ccc(C)c(F)c4)oc4ccccc34)coc2c1	-21%	/	2.3	-17	/	-0.3%	/
Nc1c(C(=O)OCC(=O)Nc2ccc(OC(F)F)cc2)[nH]c(=O)[nH]c1=O	-19%	/	-0.9	9	-17	1.2%	/
Cc1cc(/C=N/Nc2ccc([N+](=O)[O-])cn2)c(C)n1-c1ccccc1	-1.8%	3.7	0.9	34	14	0.7%	-23%
O=[N+]([O-])c1ccc(NCCNc2ccc([N+](=O)[O-])cc2)cc1	/	/	0.8	0	/	4.5%	/
O=C(O)c1ccc2c(ccc3nn(-c4ccc(/C=C/c5ccc(-n6nc7ccc8cc(C(=O)O)ccc8c7n6)cc5[S+](=O)([O-])[O-])c([S+](=O)([O-])[O-])c4)nc32)c1	4.6%	/	-0.1	/	/	-0.9%	/
Cn1c(CN2CCOCC2)nnc1SCC(=O)Nc1cccc(C(F)(F)F)c1	-1.7%	-0.3	-0.3	10	15	2.7%	15%
CCCOP(=O)(OCCC)C(Nc1ccc(C(C)C)cc1)c1ccc([N+](=O)[O-])cc1 (centres undefined)	1.5%	1.8	?	1	-6	3.6%[38.3 µM]	-11%
CCC(C)[C@H]1CN=C(N)N1CCc1cccc(F)c1 (some centres undefined)	3.2%	/	-0.3	42	/	1.3%	/
Cc1ccc(/C=C(\C#N)C(=O)NC(C)C)o1	-4.5%	5.3	0.2	19	-3	-0.2%	13%
O=C(c1ccccc1)N1CCSC1=S	2.4%	-1.9	-0.5	-4	-18	0.5%	-15%
COc1cc2c(C(=O)NCCN(C)C)cn(CC(C)C)c(=O)c2cc1OC	-19%	2.2	/	/	4	1.7%	10%
N/C(=N\OC(=O)C1CCCCC1)c1cccnc1	-2.3%	2.0	0.8	-1	-7	4.2%[38.3 µM]	13%
Cn1nc(C(=O)N2CCN(S(=O)(=O)/C=C/c3ccccc3)CC2)c2ccccc2c1=O	-5.4%	4.5	0.0	-26	16	4.6%	-3%
Cc1ccc(N(CC(=O)NCc2ccc3c(c2)OCO3)S(C)(=O)=O)cc1	-0.6%	2.2	0.9	-1	-3	-0.4%	14%
Cc1ccc(C(=O)Nc2cccc(C(=O)NCc3ccccc3)c2)cc1	5.5%	2.1	0.0	-6	0	-1.9%	-5%
COCCn1c(SCC(=O)Nc2nc(C)c(Cl)cc2Cl)nc2ccccc21	-0.5%	5.0	-0.8	-5	4	-1.3%	2%
CCOC(=O)c1ccc(S(=O)(=O)N2CCC(C(=O)O)CC2)cc1	-0.3%	-1.2	-0.2	-2	5	-1.1%	29%
COc1ccc(-c2csc(NC(=O)C3CC(=O)N(Cc4ccccc4)C3)n2)cc1OC (centres undefined)	-2.0%	/	0.0	2	13	0.5%	2%
COc1ccccc1Nc1ccc(NS(=O)(=O)c2ccc(C(C)=O)cc2)cc1	/	0.5	3.5	-8	18	1.5%	-3%
c1ccc(CCNc2ncnc3nc[nH]c23)cc1	-2.5%&-2.4%	0.1	1.4&-0.5	36	-30	-2.7%&-0.6%	1%
ClCc1csc(-c2ccccc2Cl)n1	/	-1.6	3.3	6	-5	-1.1%	11%
COc1ccc(-c2csc(C(NC(C)=O)c3cccc(F)c3)n2)cc1 (centres undefined)	-2.7%	/	-0.5	/	/	4.0%	/
The list continues.
SMILES	ClpP mod	Menin MLL FP FL	TRPML1 ag	TRPML1 inh	TRPV1 potentiator	PINK1 modulator	Sfp PPTase inh
Cc1ccc(/C=C/c2onc(C)c2S(=O)(=O)N2CCC(C(=O)N3CCN(C)CC3)CC2)cc1	-8.4%	-3.0	0.9	-9	-17	0.5%	-17%
CCCCCCSc1ccc([C@H]2N[C@@](C)(C(=O)OC)[C@H]3C(=O)N(C)C(=O)[C@@H]23)cc1	-20%	/	-0.6	-13	29	8.2%	/
O=S(=O)(Nc1cccc(S(=O)(=O)N2CCCC2)c1)c1cccc(Br)c1	-0.1%	/	0.7	2	15	0.2%	/
CC(C)C(C)(C#N)NC(=O)CSc1ncnc2sc(-c3ccccc3)cc12 (centres undefined)	?	3.2	0.9	9	-5	/	8%
CCOc1ccc(NC(=O)N(CCN2CCOCC2)Cc2ccc3c(c2)CCCN3CC)cc1	-1.3%	2.2	0.8	18	-5	0.2%	-8%
O=C(NCCN1CCOCC1)c1cccc2c1C(=O)c1ccc(N3CCCC3)cc1S2(=O)=O	-0.5%	/	-0.3	2	/	-0.5%	/
Cc1ccc(NC2=NC(c3ccccc3)n3c(nc(C)cc3=O)N2)cc1 (centres undefined)	0.4%	0.7	-0.8	8	-2	2.7%	-3%
CN(CC(=O)NCCN1CCOCC1)S(=O)(=O)c1ccc(Cl)cc1	-2.0%	/	0.6	-14	/	-0.5%	/
COc1cc(C(=S)N2CCOCC2)ccc1OS(=O)(=O)c1ccc(Cl)cc1	-1.0%	3.0	0.6	0	-7	-0.7%	-5%
COc1ccc(-c2nc3c4ccccc4n(CC(=O)Nc4ccc(C(C)C)cc4)c(=O)n3n2)cc1	-9.9%	/	1.1	-5	/	2.0%	/
OC(CCN1CCCCC1)(c1ccccc1)c1ccccc1	1.7%	1.3	-0.3	46	3	0.4%	16%&32%&31%&20%
O=C(O)[C@H](Cc1ccccc1)N1C(=O)c2ccncc2C1=O	-2.2%	3.2	3.1	12	6	-2.1%[38.3 µM]	-3%
Cc1csc(NC(=O)c2ccccc2C(=O)O)n1	-2.8%	-2.5	0.1	-1	?	/	-15%
CCN(C(=O)CSc1nnnn1C)C1CCCCC1	1.2%	/	-0.5	41	/	-1.6%	/
COc1ccccc1Nc1nc(N)nc(CSc2nc(C)cc(C)n2)n1	1.5%	-0.3	0.4	1	0	-1.9%	-3%
O=C1C(O)=CC(=C(c2ccccc2)c2ccccc2)c2ccccc21	/	/	1.4	5	/	17%	/
